# Bioassay records as filed in PubChem.
# TRPV1 potentiator: HTS Assay for Compounds that Act as Potentiators of the Vanilloid Receptor 1 | Transient receptor potential cation channel subfamily V member 1 (Homo sapiens), Q8NER1 | TRPV1-expressing cells, Fluo-8 calcium influx, capsaicin EC20 potentiation; host cell line not named in the record; control for the full effect not named in the record | potentiation, % at 8.33 µM | 320,000 compounds, 0.02% hits | AID 540277, 2011; active means potentiation above 80%; inconclusive means 30% to 80%; inactive means below 30%; also: 0% is about no effect
# Target sequence (Q8NER1 whole entry, looked up): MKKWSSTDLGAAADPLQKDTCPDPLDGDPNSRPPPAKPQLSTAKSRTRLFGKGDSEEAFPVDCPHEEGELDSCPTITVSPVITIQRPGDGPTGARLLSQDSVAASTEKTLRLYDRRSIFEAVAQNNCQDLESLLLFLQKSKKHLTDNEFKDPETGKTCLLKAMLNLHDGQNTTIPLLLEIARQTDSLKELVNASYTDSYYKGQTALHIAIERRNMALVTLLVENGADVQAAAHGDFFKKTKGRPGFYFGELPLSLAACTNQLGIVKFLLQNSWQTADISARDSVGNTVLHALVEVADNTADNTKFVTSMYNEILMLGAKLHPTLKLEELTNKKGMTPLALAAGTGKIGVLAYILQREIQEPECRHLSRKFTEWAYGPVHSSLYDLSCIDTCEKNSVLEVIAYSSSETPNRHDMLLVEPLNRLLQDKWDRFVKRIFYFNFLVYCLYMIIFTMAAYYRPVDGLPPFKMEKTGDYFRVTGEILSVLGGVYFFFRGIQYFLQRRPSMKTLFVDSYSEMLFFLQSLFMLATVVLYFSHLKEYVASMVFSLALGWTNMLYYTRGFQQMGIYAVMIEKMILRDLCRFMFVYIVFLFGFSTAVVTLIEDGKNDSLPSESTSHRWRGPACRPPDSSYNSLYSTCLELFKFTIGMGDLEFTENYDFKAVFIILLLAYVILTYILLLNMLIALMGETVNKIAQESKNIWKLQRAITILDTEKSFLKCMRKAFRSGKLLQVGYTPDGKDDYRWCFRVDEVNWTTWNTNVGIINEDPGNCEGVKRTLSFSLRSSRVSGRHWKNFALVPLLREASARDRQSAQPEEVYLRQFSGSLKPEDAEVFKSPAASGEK
#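 Cells expressing TRPV1 were dye-loaded with Fluo-8 and read kinetically: 10 s baseline, 3 min after compound (agonist portion), then 2 min after EC20 capsaicin (allosteric enhancer portion). Calcium-bound dye fluorescence at 480/520 nm.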
# Sfp PPTase inh: qHTS Assay for Inhibitors of Bacillus subtilis Sfp phosphopantetheinyl transferase (PPTase); 4'-phosphopantetheinyl transferase ffp (Bacillus subtilis), Q9F4F7; Biochemical Sfp PPTase activity, qHTS; Potency, µM, without a hit: max response, negative = inhibition, usual class: inhibitors; 310,000 compounds, 3.5% hits; active = well fitted inhibition curve with a large enough effect; inconclusive = small, poorly fitted or top-dose-only effect, or another doubt; inactive = no such curve, though single readings can be large or run the other way;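 also: the enzyme is Sfp with the accession as filed and its product quenches rhodamine fluorescence; potency is read from the fitted curve at half-maximal effect; 0% = enzyme reaction without inhibitor and -100% = no enzyme wells; top concentration of the series not given in the record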
#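 Buffer: 50 mM Hepes-Na pH 7.6, 10 mM MgCl2, 0.01% Nonidet P-40, 0.01% BSA. Enzyme 15 nM, pre-exposed to compound 15 min; substrates then added and fluorescence change tracked over 30 min.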
# gsp agonist: qHTS for Agonist of gsp, the Etiologic Mutation Responsible for Fibrous Dysplasia/McCune-Albright Syndrome: qHTS. gsp mutant cells, cAMP HTRF, 30 min; control for the full effect not named in the record. 340,000 compounds, 0.13% hits. Potency, µM (doses to about 76.9 µM), inactives show at the highest dose activation (cAMP increase), most hits filed as activators; active = well fitted activation curve with a large enough effect; inconclusive = small, poorly fitted or top-dose-only effect, or another doubt; inactive = no such curve, though single readings can be large or run the other way; cell line not stated here;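 also: phosphodiesterase inhibitor Ro 20-1724 added with compounds to block cAMP breakdown; potency is read from the fitted curve at half-maximal effect; nearly all actives have a fitted effect of over 60% in size; about a fifth of the inactives were tested at one dose only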
#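 Cells in DMEM/10% FBS with G418 were pretreated with compounds in DMSO plus […] (300 uM stock) for 30 min at 37C. cAMP was measured by HTRF (cAMP-d2 plus anti-cAMP antibody-K) after 30 min at room temperature.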
# Menin MLL FP FL: qHTS Assay for Inhibitors Targeting the Menin-MLL Interaction in MLL Related Leukemias: Competition With Fluorescein Labeled MLL-derived Peptide; Fluorescence polarization, fluorescein-MLL peptide displacement from menin; FP activity change, % at 61.4 µM; 290,000 tested, under 10 active; AID 1766, 2009; inconclusive = falling polarisation curve, or a change in total fluorescence; inactive = total fluorescence flat and polarisation flat or rising; no compound was filed as active; the % refers to the polarisation; negative = inhibition;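 also: % of control where 0% means no effect; inhibitors lower the polarisation; unlabelled MLL peptide was the positive control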
# CtBP-E1A blk: qHTS Assay for Inhibitors of the CtBP/E1A Interaction | CtBP / adenovirus E1A interaction (AlphaScreen) | AlphaScreen GST-E1A/His-CtBP binding, 1536-well; hits give low values; control for the full effect not named in the record | activity change, % (no concentration beside the values) | 340,000 compounds, 0.49% hits | AID 651724, 2012; in the data active means activity change below about -65%; inconclusive means about -30% to -65%; inactive means above about -30%; also: % is scaled to controls: 0 for no effect and ±100 for the full control effect
#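 Homogeneous bead-based format: GST-tagged E1A captured on glutathione donor beads, His-tagged CtBP on nickel acceptor beads; compounds precede bead addition by 2 h at 37 °C.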
# ClpP mod: qHTS Assay for Activators of ClpP | ATP-dependent Clp protease proteolytic subunit (Bacillus subtilis (strain 168)), P80244 | 340,000 compounds, 1.9% hits | purified B. subtilis ClpP, FRET peptide cleavage, 20 min | Potency, µM (doses to about 57.5 µM), for the others: at the highest dose activity change, negative = active; active = well fitted falling curve with a large enough effect; inconclusive = small, poorly fitted or top-dose-only effect; inactive = no such curve, though single readings can be large or run the other way; also: potency is read from the fitted curve at half-maximal effect; the source files actives as falling curves though it sought activators and does not explain the sign; nearly all actives have a fitted effect of over 65% in size; many hits overshoot -100%
# Target sequence (P80244 whole entry, looked up): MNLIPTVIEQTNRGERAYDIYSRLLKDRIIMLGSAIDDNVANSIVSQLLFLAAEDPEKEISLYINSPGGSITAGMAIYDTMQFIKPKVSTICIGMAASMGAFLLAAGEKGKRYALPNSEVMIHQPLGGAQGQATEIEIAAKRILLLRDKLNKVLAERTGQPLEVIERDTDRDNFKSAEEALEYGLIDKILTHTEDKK
#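 ClpP 10 microg/mL final, pH 8 Tris/KCl buffer with BSA, glycerol, Tween-20; compound pinned in; FRET-FV substrate; RT 20 min; Ex320/Em430; ΔFRET vs ADEP 5.8 microM, DMSO, no enzyme.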
# gsp antag: qHTS for Antagonists of gsp, the Etiologic Mutation Responsible for Fibrous Dysplasia/McCune-Albright Syndrome: qHTS; gsp-mutant cells, cAMP HTRF, 30 min; control for the full effect not named in the record; Potency, µM (series often up to 76.9 µM), inactives show at the highest dose activity change, negative = inhibition, most hits filed as inhibitors; 340,000 compounds, 0.4% hits; active = falling curve of any shape with a large fitted effect; inconclusive = falling curve, mostly with a smaller effect; inactive = flat or rising curve; cell line not stated here;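 also: intracellular cAMP measured with PDE inhibitor Ro 20-1724 present during compound exposure; potency is read from the fitted curve at half-maximal effect; % is scaled to controls: 0 for no effect and ±100 for the full control effect; nearly all actives have a fitted effect of over 65% in size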
#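 Measurement of cellular cAMP by homogeneous time-resolved fluorescence following a 30 min compound exposure at 37C. The PDE inhibitor […] was present throughout; the assay buffer was DPBS with 0.05% BSA and 0.005% Tween 20.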
# * = called active by the depositor; ? = inconclusive; . = no result given; & = joins results of further samples; [ ] = dose if it differs, or a comment.
SMILES,TRPV1 potentiator,Sfp PPTase inh,gsp agonist,Menin MLL FP FL,CtBP-E1A blk,ClpP mod,gsp antag
COc1ccc(OC)c(C(=O)NC(CC(N)=O)c2ccc(N3CCN(c4ccccn4)CC3)c([N+](=O)[O-])c2)c1 (stereo not given),-9.0,5.4%,.,-0.4,-3.6,-8.8%,-1.3%
COc1ccc([N+](=O)[O-])cc1NCc1ccccc1,4.7,-13.7%,-4.4%,9.3,14.6,-2.3%,-1.3%
O=C(NCc1ccc2c(c1)OCO2)c1cc(-c2ccccc2)on1,-8.7,11.6%,-21.1%,3.7,0.2,-2.2%,4.7%
CCCC(C)C(=O)Nc1ccc(S(=O)(=O)Nc2nccc(C)n2)cc1 (stereo not given),7.9,-11.9%,-12.2%[15.4 µM],2.6,5.1,.,6.9%
COc1ccc(NC(=O)c2ccc(N3CCOCC3)nc2)cc1,-6.0,10.1%,17.3%,.,-1.4,-2.0%,-6.5%
CC(C)(C)NC(=O)C1CCN(C(=O)c2ccc(Br)cc2)CC1,-0.8,7.0%,-26.5%,1.4,5.2,-0.7%,-1.8%
CCCc1nnc(NC(=O)CCC(=O)NC2CCCCCC2)s1,-6.7,13.7%,27.2%,.,-0.4,0.1%,4.7%
CC(C)C[C@H](NC(=O)OC(C)(C)C)C(=O)NCC1CCC(C(=O)N[C@@H](Cc2ccccc2)C(=O)O)CC1 (stereo not given in full),20.1,1.5%,4.1%,14.0,.,-0.7%,2.6%
CCn1c(SCC(=O)Nc2cc(C)on2)nc2c1c(=O)n(C)c(=O)n2C,-1.7,9.0%,?,6.2,9.1,1.5%,1.2%
COC(=O)C1=C(C(=O)OC)[C@@H]2N(C)c3ccccc3[C@@]23C[C@@H](C(=O)OC)N(C(C)=O)C3=N1,29.4,-5.4%&1.6%,.,1.8[11.7 µM],0.8,0.5%,7.6%
Cc1cc(/C=N/NC(=O)C(O)(c2ccccc2)c2ccccc2)c(C)n1-c1ccc(C(=O)O)cc1,7.8,-3.9%,-19.8%[15.4 µM],4.0,-13.4,.,1.2%
COc1cccc(-c2nnc(SCC(=O)N3CCCC3=O)n2-c2ccccc2)c1,-1.9,-1.0%,-13.2%,-0.4,7.3,0.5%,-9.4%
CN1CCN(S(=O)(=O)c2cccc(S(=O)(=O)c3cccc(S(=O)(=O)N4CCN(C)CC4)c3)c2)CC1,-5.6,7.6%,14.7%,-1.2,4.8,-0.2%,-13.0%
NC(=S)N/N=C\c1c(OCc2ccccc2Cl)ccc2ccccc12,11.6,22.3%,-29.0%,0.7,-7.9,.,0.1%
O=C(CCS(=O)(=O)c1cccs1)N1CCN(c2ccc(F)cc2)CC1,-37.0,-10.1%,-52.7%[inhibitor],3.5,7.1,0.6%,-2.1%
COc1ccc(S(=O)(=O)N(C)C[C@@H]2OCCCC[C@H](C)Oc3ccc(NC(=O)Nc4ccc(C(F)(F)F)cc4)cc3C(=O)N([C@H](C)CO)C[C@H]2C)cc1,.,.,22.2%,.,-6.1,-11.0%,.
CCOc1ccccc1C(=O)N1CCC(n2nnc3cc(C(F)(F)F)ccc32)CC1,25.7,5.9%,4.8%,-0.8,-5.2,-2.5%,?
O=C(NCc1cccc(Br)c1)C1CC(c2ccc(C(F)(F)F)cc2)=NO1 (stereo not given),.,.,.,.,11.7,2.2%,-9.1%
COc1ccc(CC(=O)N2CCC(n3nccc3NC(=O)C3CC3)CC2)cc1,10.5,20.0%,-8.4%,.,-2.8,-0.9%,-5.3%
COc1ccc2c(c1OC)C(=O)N(c1cccc(C)c1)C2,0.2,7.1%,-0.2%,0.9,4.3,2.5%,2.3%
C=CC[C@@H](Cc1ccc(F)cc1)C(=O)OC[C@H]1CCCN1C(=O)[C@@H](CC=C)CC(=O)N[C@@H](CO)Cc1ccccc1,.,.,.,.,-3.2,0.7%,-26.9%
CN(Cc1ccccc1)C(=O)COC(=O)c1cncc(Br)c1,2.5,9.6%,-125.8%[inhibitor],0.4,5.5,-0.7%,1.3%
COc1cccc(CNc2ccc3[nH]c(=O)[nH]c3c2)c1OCc1ccccc1Cl,-6.9,?,-2.9%,6.9,?,12.2%,-21.9%
Cc1cccc(C)c1OCc1cc(C(=O)N2CCN(c3ccccn3)CC2)no1,-13.6,5.2%,-15.1%,.,0.5,-0.6%,10.7%
Cc1nc(SCc2ccc(O)c([N+](=O)[O-])c2)c([N+](=O)[O-])[nH]1,-18.5,17.8µM*,-4.0%,4.6,-7.0,-0.8%,-15.6%
O=C(NC(=S)NC1CCCCCCCCCCC1)c1cccnc1,-17.7,-0.9%,4.3%,3.2,-0.8,-0.9%,5.6%
C[C@H]1CN([C@@H](C)CO)C(=O)CCCn2cc(nn2)CO[C@@H]1CN(C)S(=O)(=O)c1cccc(F)c1,.,.,?,.,-2.3,1.2%,.
O=c1oc(CCCO)cc2ccc(/C=C/c3cccc([N+](=O)[O-])c3)cc12,-9.0,.,.,.,-0.4,-1.2%,-9.3%
O=C(COC(=O)c1ccc([N+](=O)[O-])cc1)NC12CC3CC(CC(C3)C1)C2,.,.,-15.5%,.,6.9,0.1%,14.5%
CCC(=O)Nc1ccc(C(=O)NNC(=O)C2CCCCC2)cc1,17.8,-5.1%,3.1%,.,2.2,-0.6%,1.2%
CCN(CC)C(=S)SCC(=O)c1ccc(Br)cc1,-13.6,-11.4%,-18.0%,7.3,.,1.2%,-10.5%
CN(C)S(=O)(=O)c1cccc(NC(=O)c2sccc2-c2ccccc2)c1,-15.7,16.0%,7.0%,.,6.6,1.2%,-2.0%
CCOC(=O)Nc1ccc2c(c1)N(C(=O)CN(C)C)c1ccccc1S2,.,.,-16.2%,.,-4.5,-0.3%,.
CC(=O)CC(=O)NC1CCc2ccccc21 (stereo not given),.,.,-7.4%,.,-13.6,-4.2%,15.7%
Cc1cc2cc(CN(CCN3CCOCC3)C(=O)Nc3ccccc3F)c(=O)[nH]c2cc1C,-10.1,10.6%,5.4%,3.3,6.0,-29.4%,-15.9%
CC(=O)Nc1ccc(OCC(O)CN2CCN(c3ccc(C)c(Cl)c3)CC2)cc1 (stereo not given),?,-26.5%,?,0.1,?,-0.3%,1.8%
C=C(c1ccccc1Cl)[n+]1ccccc1,2.4,15.6%,0.8%[15.4 µM],2.3,0.0,-0.1%,-15.3%
Cc1nc2ccc(-c3nc4cc(N)ccc4o3)cc2[nH]1,-4.7,-1.8%,?,0.4,?,-11.9%,10.4%
COC(=O)[C@H](CCSC)NC(=O)Cn1cnc2c(OCc3ccccc3)ncnc21,.,.,.,.,3.1,0.1%,5.2%
CCOC(=O)N1CCC(NC(=O)c2cc(C(=O)NCc3cccc(Cl)c3)ccc2CO)CC1,17.5,11.9%,-7.3%,3.7,0.9,1.2%,-1.6%

# A stretch of the results above, as a working copy:
SMILES,TRPV1 potentiator,Sfp PPTase inh,gsp agonist,Menin MLL FP FL,CtBP-E1A blk,ClpP mod,gsp antag
O=C(NCc1ccc2c(c1)OCO2)c1cc(-c2ccccc2)on1,-8.7,11.6%,-21.1%,3.7,0.2,-2.2%,4.7%
CCCC(C)C(=O)Nc1ccc(S(=O)(=O)Nc2nccc(C)n2)cc1 (stereo not given),7.9,-11.9%,-12.2%[15.4 µM],2.6,5.1,.,6.9%
COc1ccc(NC(=O)c2ccc(N3CCOCC3)nc2)cc1,-6.0,10.1%,17.3%,.,-1.4,-2.0%,-6.5%
CC(C)(C)NC(=O)C1CCN(C(=O)c2ccc(Br)cc2)CC1,-0.8,7.0%,-26.5%,1.4,5.2,-0.7%,-1.8%
CCCc1nnc(NC(=O)CCC(=O)NC2CCCCCC2)s1,-6.7,13.7%,27.2%,.,-0.4,0.1%,4.7%
CC(C)C[C@H](NC(=O)OC(C)(C)C)C(=O)NCC1CCC(C(=O)N[C@@H](Cc2ccccc2)C(=O)O)CC1 (stereo not given in full),20.1,1.5%,4.1%,14.0,.,-0.7%,2.6%

# Carrying on:
SMILES,TRPV1 potentiator,Sfp PPTase inh,gsp agonist,Menin MLL FP FL,CtBP-E1A blk,ClpP mod,gsp antag
COc1cc2c(cc1OC)C(C)N(C(=O)Nc1ccc(F)cc1)CC2 (stereo not given),-14.0,7.3%,10.8%,4.2,.,-0.8%,13.7%
COc1ccc([C@H]2CC(=O)C=C(c3cccc(Cl)c3)C2)cc1OC,-2.3,.,.,.,1.1,-0.9%,9.7%
CC1CCCCC1NC(=O)c1ccc(NC2=NC3CS(=O)(=O)CC3S2)cc1 (stereo not given),0.2,4.3%,-6.2%,.,1.4,0.7%,1.4%
O=C(O)CSCNC(=O)CC12CC3CC(CC(C3)C1)C2,-4.4,7.9%,?,3.6,-3.7,-1.1%,-2.7%
CN(C)c1ccc(C(CNC(=O)COc2ccc(Cl)cc2)N2CCCC2)cc1 (stereo not given),0.6,-13.1%,-1.3%,-10.7,.,-0.4%,2.7%
CCc1nnc(NC(=O)C(NS(=O)(=O)c2ccc3c(c2)OCCO3)C(C)C)s1 (stereo not given),-7.8,2.3%,3.0%,5.7,-1.9,-1.4%,-6.8%
O=C1OC(Cc2ccccn2)C(=O)C1=C1SCCS1 (stereo not given),-2.1,23.7%,28.3%,.,6.1,1.4%,14.3%
O=C(c1cccc(S(=O)(=O)N2CCc3ccccc32)c1)N1CCc2ccccc2C1,7.7,.,-11.3%,.,-2.6,1.3%,?
